Screening results from PubChem BioAssay.
NOMO-1 viab – NOMO-1 AML cell viability reduction, primary screen, STK33 inhibitor project, CellTiter-Glo luminescence; NOMO-1 AML viability, 72 h; inhibition, % (concentration not given with the values); actives 7.5% (n = 37,000);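 active = most replicates above 80%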;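 also: wells of about 30 µL received 25 nL stock; 0% = median of vehicle wells and 100% = reference inhibitor level; the first replicate is given; inactives centre near 10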
The depositor's hits bear a star. A portion of the library. The share of hits here may be higher or lower than overall.

molecule | NOMO-1 viab
COc1ccc(NC(=O)Nc2ccc3c(c2)CC(=O)N([C@H](C)CO)C[C@H](C)[C@H](CN(C)C(=O)Nc2ccccc2)O3)cc1 | 11.0
Cc1oc2c(c1C(=O)NCCc1ccccc1)C(=O)c1ccccc1C2=O | 32.2
Cn1c(CN2CCOCC2)nnc1SCC(=O)Nc1ccc2c(c1)OCCO2 | -16.0
O=[N+]([O-])c1ccccc1S(=O)(=O)N1CCN(S(=O)(=O)Cc2ccccc2)CC1 | 35.6
C[C@@H]1CN([C@H](C)CO)C(=O)Cc2cc(NS(C)(=O)=O)ccc2O[C@H]1CN(C)Cc1ccccc1 | -2.8
C[C@@H]1CN([C@@H](C)CO)C(=O)Cc2cc(NC(=O)c3ccncc3)ccc2O[C@@H]1CN(C)Cc1ccncc1 | 4.6
Cc1ccc(NC(=O)CSc2nnc(-c3cccnc3)n2-c2ccc(Br)cc2)cc1F | 32.6
COc1c(O)c(O)cc2ccc3cccc(O)c3c12 | 50.1
C[C@H](CO)N1C[C@H](C)[C@H](CN(C)Cc2ccncc2)Oc2ccc(NC(=O)NC3CCCCC3)cc2C1=O | 105.2*
C[C@H](CO)N1C[C@H](C)[C@@H](CN(C)S(C)(=O)=O)Oc2ccc(NS(=O)(=O)c3cccs3)cc2C1=O | 5.4
NC(=O)CSc1nnc(-c2cccnc2)s1 | 4.3
O=C(CC1(O)C(=O)Nc2ccccc21)c1ccc(OCC(=O)N2CCOCC2)cc1 (configuration not stated) | 18.8
C[C@@H]1CCCCO[C@H](CN(C)Cc2ccc(C(F)(F)F)cc2)[C@@H](C)CN([C@H](C)CO)C(=O)c2cc(NC(=O)C3CCCCC3)ccc2O1 | 71.7
C[C@@H]1CN([C@H](C)CO)C(=O)c2cccc(N(C)C)c2O[C@H]1CN(C)Cc1ccc2c(c1)OCO2 | 19.4
C[C@@H]1CN([C@H](C)CO)C(=O)c2cc(NS(=O)(=O)c3ccccc3)ccc2O[C@H]1CN(C)Cc1ccccc1 | 0.5
N#Cc1c(-c2cccs2)cc(-c2ccccc2)nc1OCC(=O)c1ccccc1 | -31.5
C[C@H](CO)N1C[C@H](C)[C@H](CN(C)Cc2ccc(-c3ccccc3)cc2)Oc2ccc(NC(=O)Nc3cccc4ccccc34)cc2CC1=O | 54.5
CO/C(N)=N/C(=S)Nc1ccccc1 | 11.8
C[C@H](CO)N1C[C@H](C)[C@H](CN(C)S(=O)(=O)c2cn(C)cn2)Oc2ccc(NC(=O)C3CCCCC3)cc2CC1=O | 12.5
O=C(CSc1nc(-c2ccc(Cl)cc2)cc(C(F)(F)F)n1)Nc1ccc(F)cc1 | 25.2
O=C(Nc1ccc(I)cc1C(=O)NCc1cccnc1)c1ccco1 | 34.3
C[C@@H]1CN([C@H](C)CO)C(=O)c2cccc(NC(=O)Nc3ccc(F)cc3)c2O[C@@H]1CN(C)Cc1ccc(C(F)(F)F)cc1 | 35.7
C[C@H](CO)N1C[C@H](C)[C@H](CN(C)C)Oc2ccc(NC(=O)Nc3ccccc3)cc2C1=O | 12.0
C[C@@H]1CN([C@H](C)CO)C(=O)Cc2cc(NC(=O)Cc3ccccc3)ccc2O[C@@H]1CN(C)Cc1ccc(Oc2ccccc2)cc1 | 115.6*
CNC[C@H]1Oc2c(NC(=O)c3ccc(-c4nccs4)cc3)cccc2C(=O)N([C@@H](C)CO)C[C@H]1C | 13.3
O=C1c2ccccc2S(=O)(=O)N1CC(O)Cn1c2ccc(Cl)cc2c2cc(Cl)ccc21 (configuration not stated) | 2.3
O=C(CSc1nnc(COc2ccccc2)o1)Nc1ccccc1 | 13.6
COc1ccc(CN(C)C[C@@H]2Oc3c(NC(=O)Nc4ccc(C(F)(F)F)cc4)cccc3C(=O)N([C@@H](C)CO)C[C@@H]2C)cc1 | 11.0
Cc1noc(C)c1S(=O)(=O)Nc1ccc2c(c1)C(=O)N([C@@H](C)CO)C[C@@H](C)[C@@H](CN(C)C(=O)Nc1cccc3ccccc13)O2 | -10.6
Cc1noc(C)c1NC(=O)Nc1ccc2c(c1)CC(=O)N([C@H](C)CO)C[C@@H](C)[C@H](CN(C)CC1CC1)O2 | -24.8
C[C@H]1CN([C@@H](C)CO)C(=O)c2cccc(NC(=O)Nc3cccc4ccccc34)c2O[C@@H]1CN(C)C(=O)Nc1cccc2ccccc12 | 45.1
O=C(CSc1nnc2sc3ccccc3n12)Nc1ccc(Cl)cc1 | -13.0
COc1ccc(OC)c(-c2cc(C(=O)NCCc3ccccc3OC)c3ccccc3n2)c1 | 44.5
O=C(COc1ccc([N+](=O)[O-])cc1)Nc1ccc2oc(-c3cccc(Cl)c3)nc2c1 | -2.7
C[C@@H]1CN([C@H](C)CO)C(=O)c2cc(NS(=O)(=O)c3cccs3)ccc2O[C@@H]1CN(C)Cc1ccc(Oc2ccccc2)cc1 | 105.9*
C[C@H](CO)N1C[C@H](C)[C@H](CN(C)C(=O)Nc2ccccc2)Oc2c(NC(=O)NC3CCCCC3)cccc2C1=O | 4.9
CC(=O)Nc1cccc(Cn2cccn2)c1 | -18.2
C[C@@H]1CN([C@H](C)CO)C(=O)c2cccc(NC(=O)C3CCOCC3)c2O[C@H]1CN(C)C(=O)Nc1ccc(C(F)(F)F)cc1 | 28.5
Cn1c(=O)c2cnc(-c3ccccc3)nc2n(C)c1=O | 3.3
COc1ccc(C2(O)c3ccccc3NC(=O)C2O)cc1 (configuration not stated) | -5.6
Cc1cc(C(=O)Nc2cccc3c2O[C@@H](CN(C)C(=O)NC2CCCCC2)[C@@H](C)CN([C@@H](C)CO)C3=O)n(C)n1 | 6.5
COc1ccc(S(=O)(=O)Nc2ccc3c(c2)C(=O)N([C@H](C)CO)C[C@H](C)[C@H](CN(C)S(C)(=O)=O)O3)cc1 | -18.7
O=C(O)CSCC(=O)N1CCCN(c2ccc(C(F)(F)F)cn2)CC1 | 14.5
CNC[C@H]1Oc2ccc(N(C)C)cc2CC(=O)N([C@H](C)CO)C[C@H]1C | 5.9
C[C@@H]1CN([C@H](C)CO)C(=O)Cc2cc(NS(=O)(=O)c3ccc(F)cc3)ccc2O[C@H]1CN(C)CC1CC1 | 17.6
Cc1noc(C)c1NC(=O)N(C)C[C@H]1Oc2c(NC(=O)Nc3ccccc3)cccc2C(=O)N([C@@H](C)CO)C[C@H]1C | 19.1
COc1ccc(NC(=O)N(C)C[C@@H]2Oc3ccc(NC(=O)CCC(F)(F)F)cc3C(=O)N([C@H](C)CO)C[C@H]2C)cc1 | -6.0
COC(=O)C1=C(C)N=C2SC(C#N)=C(N)N2C1c1cccs1 (configuration not stated) | 52.6
Cn1c(SCC(=O)NCCO)nc2ccccc2c1=O | -12.4
CNC[C@@H]1Oc2ccc(NC(=O)Cc3cn(C)c4ccccc34)cc2CC(=O)N([C@H](C)CO)C[C@@H]1C | -8.2
C[C@@H]1CN([C@@H](C)CO)C(=O)c2cc(NC(=O)CCC(F)(F)F)ccc2O[C@@H]1CN(C)C | -22.3
COc1ccccc1NC(=O)CN(C)S(=O)(=O)c1cc(C)ccc1OC | -33.3
Cc1cc(C)c2c(=O)[nH]c(SCC(=O)c3ccc(F)c(C)c3)nc2n1 | 4.9
C[C@H]1CN([C@@H](C)CO)C(=O)Cc2cc(NS(C)(=O)=O)ccc2O[C@@H]1CN(C)Cc1ccccc1 | 16.8
CNC(=O)Nc1ccc(C2SCCS2)cc1 | 2.2
Cc1c(C(=O)Nc2sc3c(c2C(=O)NCCc2ccccc2)CCC3)oc2ccc(F)cc12 | -2.8
CC1(C)CC(n2c(SCC(N)=O)nc3c(c2=O)C2(CCCCC2)Cc2ccccc2-3)CCO1 (configuration not stated) | 25.5
COc1cccc(S(=O)(=O)NCC(=O)N2CCCCC2C)c1 (configuration not stated) | -3.6
COc1ccc(NC(=O)Nc2ccc3c(c2)C(=O)N([C@@H](C)CO)C[C@@H](C)[C@H](CN(C)Cc2ccc(C(=O)O)cc2)O3)cc1 | -0.8
C[C@@H]1CN([C@@H](C)CO)C(=O)c2cc(NC(=O)Nc3ccc(C(F)(F)F)cc3)ccc2O[C@H]1CN(C)S(=O)(=O)c1cn(C)cn1 | 9.9

Following part
molecule | NOMO-1 viab
O=C1c2ccccc2C(=O)N1CCN1CCCCC1 | -22.4
Cc1ccc(S(=O)(=O)Nc2ccc3c(c2)CC(=O)N([C@@H](C)CO)C[C@H](C)[C@@H](CN(C)C(=O)Nc2c(C)noc2C)O3)cc1 | 1.9
COc1ccc(NC(=O)N(C)C[C@@H]2Oc3ccc(NC(=O)Nc4cccc5ccccc45)cc3C(=O)N([C@@H](C)CO)C[C@@H]2C)cc1 | 4.7
C[C@H]1CN([C@@H](C)CO)C(=O)Cc2cc(NS(C)(=O)=O)ccc2O[C@H]1CN(C)Cc1ccc2c(c1)OCO2 | -14.5
Cc1ccc2c(c1)C(O)(CC(=O)c1ccccc1[N+](=O)[O-])C(=O)N2 (configuration not stated) | 15.0
C[C@H]1CN([C@@H](C)CO)C(=O)c2cc(NS(=O)(=O)c3cccs3)ccc2O[C@@H]1CN(C)C(=O)Nc1ccc2c(c1)OCO2 | 3.3
CC(C)CC(C(=O)Oc1ccc([N+](=O)[O-])cc1)N1C(=O)c2ccccc2C1=O (configuration not stated) | 56.9
CCCn1c2ccccc2c2nnc(SCC(=O)N3c4ccccc4Sc4ccccc43)nc21 | -9.1
CCc1nc(OCc2ccco2)c2sc3nc4c(cc3c2n1)COC(C)(C)C4 | 29.3
C[C@@H]1CN([C@H](C)CO)C(=O)c2cccc(NC(=O)CCCCCC(=O)Nc3ccccc3N)c2O[C@H]1CN(C)C(=O)NC1CCCCC1 | 19.1
Cn1c(SCC(=O)Nc2sc3c(c2C#N)CCCC3)nnc1-c1ccc(Br)cc1 | 37.7
Cc1ccc(C)c(NC(=O)CSc2nnnn2-c2ccc(C(=O)O)cc2)c1 | 12.6
C[C@@H]1CN([C@@H](C)CO)C(=O)c2cc(NS(=O)(=O)c3ccc(Cl)cc3)ccc2O[C@@H]1CN(C)C(=O)NC1CCCCC1 | 20.1
CCn1c(SCC(=O)Nc2cc(C(F)(F)F)cc(C(F)(F)F)c2)nnc1-c1ccncc1 | 38.9
CC(C)(C)C(=O)Nc1ccn([C@H]2C[C@H](O)[C@@H](COC(=O)C(C)(C)C)O2)c(=O)n1 | 10.5
C[C@H]1CN([C@@H](C)CO)C(=O)Cc2cc(NC(=O)Cc3cn(C)c4ccccc34)ccc2O[C@H]1CN(C)Cc1ccc(C(=O)Nc2ccccc2N)cc1 | 120.1*
c1ccc(CN(CCN(Cc2ccccn2)Cc2ccccn2)Cc2ccccn2)nc1 | 98.4*
Cc1nc(SCCC(=O)Nc2ccccc2C#N)nc2cc3c(cc12)CCC3 | 2.5
COc1ccc(CN(C)C[C@H]2Oc3ccc(NC(=O)CCC(F)(F)F)cc3CC(=O)N([C@H](C)CO)C[C@H]2C)cc1 | 8.7
CC(C)NC(=O)N(C)C[C@H]1Oc2c(NC(=O)C3CCOCC3)cccc2C(=O)N([C@H](C)CO)C[C@H]1C | 4.6
COC(=O)c1ccccc1NC(=O)CSc1nnnn1-c1ccccc1OC | -25.6
COc1ccc(Cl)cc1NC(=O)CSc1nc2ccccc2n1-c1ccccc1 | 39.3
C[C@@H]1CN([C@H](C)CO)C(=O)Cc2cc(NS(=O)(=O)c3ccc(Cl)cc3)ccc2O[C@@H]1CN(C)CC1CCCCC1 | 113.8*
C[C@@H]1CN([C@H](C)CO)C(=O)Cc2cc(NC(=O)CCN3CCOCC3)ccc2O[C@@H]1CN(C)Cc1ccccc1 | -5.2
COc1ccc(N(CC(=O)O)S(C)(=O)=O)cc1OC | 23.0
COc1ccc(NC(=O)N(C)C[C@@H]2Oc3ccc(NC(=O)Nc4c(C)noc4C)cc3C(=O)N([C@@H](C)CO)C[C@H]2C)cc1 | -10.8
Cc1ccc(-c2cc(C(=O)NCc3cccnc3)c3cc(Br)ccc3n2)cc1 | 37.9
CCCN1CCN(c2ncnc3scc(C4COc5ccccc5O4)c23)CC1 (configuration not stated) | 30.1
CC(=O)Nc1ccccc1NC(=O)COc1ccc(Cl)cc1Cl | 18.8
C[C@@H]1CN([C@@H](C)CO)C(=O)c2cccc(NC(=O)C3CCCCC3)c2O[C@@H]1CN(C)C(=O)Nc1ccccc1 | 19.9

Grouped by structure: those above containing a cyano group (4)
molecule | NOMO-1 viab
N#Cc1c(-c2cccs2)cc(-c2ccccc2)nc1OCC(=O)c1ccccc1 | -31.5
COC(=O)C1=C(C)N=C2SC(C#N)=C(N)N2C1c1cccs1 (configuration not stated) | 52.6
Cn1c(SCC(=O)Nc2sc3c(c2C#N)CCCC3)nnc1-c1ccc(Br)cc1 | 37.7
Cc1nc(SCCC(=O)Nc2ccccc2C#N)nc2cc3c(cc12)CCC3 | 2.5

Next part:
molecule | NOMO-1 viab
Cc1noc(C)c1NC(=O)Nc1ccc2c(c1)CC(=O)N([C@H](C)CO)C[C@@H](C)[C@@H](CN(C)C(=O)NC1CCCCC1)O2 | 7.0
C[C@H](CO)N1C[C@H](C)[C@H](CN(C)C(=O)Nc2ccc3c(c2)OCO3)Oc2c(NC(=O)Nc3ccccc3)cccc2C1=O | 38.7
N#Cc1c(NC(=O)c2ccc(COc3ccccc3Cl)o2)sc2c1CCCC2 | 37.1
Cc1noc(C)c1S(=O)(=O)Nc1ccc2c(c1)C(=O)N([C@H](C)CO)C[C@H](C)[C@@H](CN(C)Cc1ccncc1)OCCCC[C@@H](C)O2 | 4.7
O=C(NCC1CCCO1)c1cc(S(=O)(=O)N2CCCC2)c(Cl)cc1Cl (configuration not stated) | -1.4
C[C@H]1CN([C@@H](C)CO)C(=O)c2cc(NC(=O)Nc3cccc4ccccc34)ccc2O[C@@H]1CN(C)Cc1ccc(C(F)(F)F)cc1 | 43.2
S=C(NC1CCCCC1)N1CCCCC1 | 12.1

Some of the entries above, reformatted.
Molecule: Cc1noc(C)c1S(=O)(=O)Nc1ccc2c(c1)C(=O)N([C@H](C)CO)C[C@H](C)[C@@H](CN(C)Cc1ccncc1)OCCCC[C@@H](C)O2
- NOMO-1 viab = 4.7
Molecule: C[C@H](CO)N1C[C@H](C)[C@H](CN(C)C(=O)Nc2ccc3c(c2)OCO3)Oc2c(NC(=O)Nc3ccccc3)cccc2C1=O
- NOMO-1 viab = 38.7
